Screening results deposited in PubChem by Southern Research Institute.
Mtb growth – Mycobacterium tuberculosis H37Rv growth inhibition, cell based, confirmatory dose response (AID 1949) | most inactive calls were filed without a number and no value below 0 was filed | inhibition, % at 10 µg/mL, or IC50 in µg/mL where a hit was titrated | 1.6% of 100,000 active;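 active = confirmed in a dose series; inconclusive = about 50% or more but not retested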;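 note: bacteria grown 7 days with compound before Alamar blue readout; 0% = untreated bacteria and 100% = reference antibiotic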
Numbers without * were called inactive; i = inactive; ? = inconclusive. The list is partial; the hit share may differ from the screen's.

SMILES | Mtb growth
CS(=O)(=O)N(CC(=O)Nc1ccccc1C(=O)NCCc1ccccc1)c1ccc(Br)cc1 | i
COc1ccc(NS(=O)(=O)c2ccc(NC(=O)c3csc(C)c3)cc2)cc1 | i
O=C(COc1ccc(Cl)cc1Br)N1CCN(c2ccc([N+](=O)[O-])cc2)CC1 | 0.1%
O=C(CSc1ccccc1)Nc1cccc(NC(=O)c2cccs2)c1 | i
CCN1CCN(C(=O)c2ccc(I)cc2)CC1 | i
CCOC(=O)c1c(NC(=O)Cc2ccc(OC)cc2)sc(C(=O)Nc2cccc(Cl)c2C)c1C | i
CC1(C(=O)O)CCC(C(=O)O)C1(C)C (stereo unspecified) | i
CCC(=O)Nc1ccc(C(=O)c2ccccc2)cc1NC(=O)CC | i
O=C(Nc1ccccc1)c1cc([N+](=O)[O-])ccc1N1CCOCC1 | i
O=C(O)c1sc2cc(Cl)ccc2c1Cl | i
Fc1cccc(NC(=S)Nc2ccc(CN3CCCCC3)cc2)c1 | i
COc1cccc(-c2nc(SCC(=O)Nc3sc4c(c3C#N)CCCC4)[nH]c(=O)c2C#N)c1 | i
c1nc2sc3c(c2c2nnc(C4CCCCC4)n12)CCCC3 | 4.7%
COc1ccc(C(=O)N2N=C3CCCCC3C2(O)C(F)(F)F)cc1 (stereo unspecified) | 2.5%
COc1ccc(NC(=O)c2ccc3c(c2)C(=O)N(CC2CCCO2)C3=O)c(OC)c1 (stereo unspecified) | i
Cc1cc2ccccn2c1C(=O)C(=O)O | i

In the list so far, 2 contain four or more nitrogen atoms:
SMILES | Mtb growth
COc1cccc(-c2nc(SCC(=O)Nc3sc4c(c3C#N)CCCC4)[nH]c(=O)c2C#N)c1 | i
c1nc2sc3c(c2c2nnc(C4CCCCC4)n12)CCCC3 | 4.7%

More results:
SMILES | Mtb growth
CC(C)c1ccc(C(=O)Nc2cccc(F)c2)cc1 | i
O=C(NC1CCCCC1)c1ccc(NC(=O)C2(c3ccccc3)CCCC2)cc1 | 11.2%
CCn1c(SCC(=O)Nc2cc(Cl)cc(Cl)c2)nnc1-c1ccc(C)cc1 | i
Cc1ccc(C(=O)Nc2ccc(N3CCCC3)c(Cl)c2)c(C)c1 | 6.72µg/mL*
Cc1ccc(OCC(O)CN)cc1 (stereo unspecified) | i
COc1ccc(CCN2C(=O)C(NC(=O)c3cccs3)(C(F)(F)F)C3=C2CC(C)(C)CC3=O)cc1OC (stereo unspecified) | i
Cc1occc1C(=O)Nc1ccc(CC(=O)O)cc1 | 4.5%
Cc1oc2c(C)c3oc(=O)c4c(c3cc2c1C)CCC4 | i
Cc1cc(/C=C2\NC(=O)NC2=O)c(C)n1-c1ccccc1F | i
Cc1oc2c(C)c(OCc3ccccc3)ccc2c(=O)c1N1C(=O)c2ccccc2C1=O | i
Cc1ccc(OC(=O)COc2ccc(Cl)cc2Cl)cc1 | i
Cc1ccc(S(=O)(=O)CCC(=O)Nc2cccc(C)c2)cc1 | 3.3%
O=C(O)CCc1ccc(-c2ccccc2)n1-c1ccccc1O | i
O=C(CN1C(=O)C2C3CCC(C3)C2C1=O)Oc1ccc2ccccc2c1 (stereo unspecified) | i
Cc1cccc(NS(=O)(=O)c2cc3c4c(cccc4c2)C(=O)NC3=O)c1C | 19.2%
O=C(NC(=S)Nc1ccc(S(=O)(=O)N2CCCCC2)cc1)C1CCC1 | i

Sorted by molar mass (smallest number first): some entries from above.
SMILES | Mtb growth
Cc1cc(/C=C2\NC(=O)NC2=O)c(C)n1-c1ccccc1F | i
O=C(O)CCc1ccc(-c2ccccc2)n1-c1ccccc1O | i
Cc1ccc(OC(=O)COc2ccc(Cl)cc2Cl)cc1 | i
O=C(NC(=S)Nc1ccc(S(=O)(=O)N2CCCCC2)cc1)C1CCC1 | i
Cc1oc2c(C)c(OCc3ccccc3)ccc2c(=O)c1N1C(=O)c2ccccc2C1=O | i

Following part:
SMILES | Mtb growth
Cc1ccc(NC(=O)CNc2ccc(OC(C)C)cc2)cc1 | 3.1%
CCOC(=O)C1CCN(C(=O)CN(c2ccc(Cl)cc2C)S(=O)(=O)c2ccccc2)CC1 | i
CC12CCC(C(=O)NNc3ccccc3)(OC1=O)C2(C)C (stereo unspecified) | i
COC(=O)c1ccc(NC(=S)NC2CC(C)(C)NC(C)(C)C2)cc1 | i
Cn1c(CCNC(=O)c2ccccc2F)nnc1SCC(=O)N1CCN(c2ccccc2)CC1 | i
COC(=O)c1c(-c2ccc(C)cc2)csc1NC(=S)NC(=O)c1cc(OC)cc(OC)c1 | i
CCOc1ccc(CNc2ccc(N3CCN(C(C)=O)CC3)cc2)cc1 | i
CCN(CC)CCN1C(=O)C(O)=C(C(=O)c2ccc(C)o2)C1c1ccccn1 (stereo unspecified) | i
O=C(Nc1ccc(Cl)cc1C(F)(F)F)C1CC(=O)N(c2ccc(F)cc2)C1 (stereo unspecified) | i
O=C(Cc1cccs1)Nc1ccc(S(=O)(=O)N2CCOCC2)cc1 | i
CCc1ccc(N(CC(=O)Nc2ccc(Cl)cc2C)S(C)(=O)=O)cc1 | i
CCOc1cc(C2NC(=S)NC(c3ccccc3)=C2C(C)=O)c(Cl)c(Br)c1O (stereo unspecified) | i
COc1ccc(C2(C(=O)O)CCOCC2)cc1 | i
COc1ccc(C(=O)CSc2nnc(CNC(=O)c3ccccc3)n2C)cc1 | i
CC(C)OCCCNS(=O)(=O)c1ccc2ccccc2c1 | 1.4%
S=c1nc(-c2ccc(Br)cc2)oc2c1CCCC2 | 0.3%
Cc1ccc(-c2nnc(SCC(=O)Nc3c(Cl)cc(Cl)cc3Cl)n2C)cc1 | i
O=C(O)c1ccc(NC(=S)NC(=O)c2ccccc2I)cc1 | i
CCc1ccc(CN2CCN(C(=O)c3cccc(Cl)c3)CC2)cc1 | i
O=C(COc1ccc2ccccc2c1)NC(c1ccccc1)c1ccc(Cl)cc1 (stereo unspecified) | i
O=C(CSc1nnc(-c2ccco2)o1)c1ccc2c(c1)OCCO2 | 7.2%
CCOC(=O)c1c(NC(=O)CSc2nc3[nH]ncc3c(=O)n2-c2ccccc2)sc(C)c1C | 40.8%
CSCCC(NC(=O)/C(=C\c1cccc(Br)c1)NC(=O)c1ccco1)C(=O)O (stereo unspecified) | i
O=C(CN1CCCC1)Nc1cccc([N+](=O)[O-])c1 | i
COc1cc(C2C(C#N)=C(SCc3ccccc3)NC3=C2C(=O)CCC3)ccc1O (stereo unspecified) | i
CSc1cccc(NC(=O)COc2ccc(S(=O)(=O)NCC(C)C)cc2Cl)c1 | i
Cc1cc(C(F)F)n2nc(C(=O)Nc3ccc(Cl)cc3C(=O)c3ccccc3)nc2n1 | 1.1%
CCc1cccc(OCC(=O)Nc2ccc(Br)cc2C(=O)O)c1 | i
Nc1ncnc(N2CCN(c3ccc(F)cc3)CC2)c1[N+](=O)[O-] | i
O=C(NC1CC1)c1ccccc1[N+](=O)[O-] | 0.8%
Cc1cc(C)c(NC(=O)CN(C)S(=O)(=O)c2ccc(Br)cc2)c(C)c1 | i
O=C(OCc1ccc(Cl)cc1Cl)c1ccncc1 | ?
COc1cccc(NC(=S)Nc2ccc3nc(-c4ccco4)c(-c4ccco4)nc3c2)c1 | 7.3%
Cc1cc(C)c(C#N)c(SCc2ccc3c(c2)OCO3)n1 | i
CCOc1ccccc1NC(=O)Nc1cccc(Cl)c1Cl | i
O=C(CCCN1C(=O)c2ccccc2C1=O)NC1CCCC1 | i
COC(=O)Nc1nnc(Cc2ccccc2)s1 | i
COc1ccc2ccccc2c1C1NC(=S)NC(C)=C1C(C)=O (stereo unspecified) | i
CCc1ccc(NC(=O)c2ccc(N(Cc3ccccc3)S(C)(=O)=O)cc2)cc1 | i
COc1ccc(NC(=O)CN(c2ccccc2)S(=O)(=O)c2ccc(OC)c(OC)c2)cc1OC | i

(continued)
Molecule,Mtb growth
Cc1ccc(CN(c2ccc(C(=O)NCCSc3ccc(C)cc3)cc2)S(C)(=O)=O)cc1,i
CCCN1C(=O)c2cccc3c(NC(C)=O)ccc1c23,i
CC(C)CCSc1nc2c(c(=O)[nH]1)C(c1cccc([N+](=O)[O-])c1)C1=C(CCCC1=O)N2 (stereo unspecified),2.9%
FC(F)(F)c1cccc2c(N3CCOCC3)cc(-c3ccccc3)nc12,11.3%
COC(=O)c1cc(Cl)cc(Cl)c1O,i
Cc1csc(NC(=O)CSc2nnc(-c3ccc(Cl)cc3)n2N)n1,i
CC(=O)NC(=S)Nc1ccc(NC(=O)c2cccc3c(Br)cccc23)cc1,4.3%
O=C(Nc1ccc(Cl)c(Cl)c1)OCC(F)(F)F,i
O=C(Nc1cccc(F)c1)N1CCN(c2cccc(C(F)(F)F)c2)CC1,0.9%
Cc1cc(C)c2c(-c3ccccc3)[nH]nc2n1,i
CCOC(=O)C1=CN(C)C=C(C(=O)OCC)C1c1ccccc1OCc1ccccc1,i
CNc1nnc(-c2cc3cc(Cl)ccc3oc2=O)s1,i
CN(C)c1ccc2sc(=S)[nH]c2c1,35.2%
CCCOc1ccc(C=Nn2c(-c3ccc(C)cc3)n[nH]c2=S)cc1,36.2%
CCCCOc1ccc(C(=O)N2CCN(Cc3ccccc3)CC2)cc1,i
CCCC(=O)Nc1ccc(Cl)c(NC(=O)c2cc3ccccc3cc2OC)c1,i
O=C(COc1ccc(Cl)cc1)Oc1ccc([N+](=O)[O-])cc1,i
O=C(NCCC1=CCCCC1)c1cccc(C(=O)NCCC2=CCCCC2)n1,7.9%
CN(Cc1ccccc1)S(=O)(=O)c1ccc(NS(=O)(=O)Cc2ccccc2)cc1,i
Cn1c(CCCOc2ccc(Cl)cc2Cl)nnc1SCC(=O)Nc1ccc(F)c(Cl)c1,2.8%
CCN(C(=O)c1ccc(Br)o1)c1ccccc1,i
O=C(Nc1ccc(Cl)c(C(F)(F)F)c1)c1ccc(Br)o1,i
Nc1nc(Nc2cccc(F)c2)nc2ccccc12,19.7%
CCc1ccc(S(=O)(=O)Nc2cc(Cl)c(O)c3ccccc23)cc1,4.4%
O=C1CC(NC2CCCC2)C(=O)N1c1cccc(C(F)(F)F)c1 (stereo unspecified),i
COc1ccc(CC(=O)Nc2sc3c(c2C(=O)Nc2ccccc2Cl)CCCCC3)cc1,i
Cc1ccc(S(=O)(=O)CC(c2ccccc2)N2CCCCC2)cc1 (stereo unspecified),0.7%
COc1ccc(S(=O)(=O)NC2CC3CCC2C3)c(Cl)c1Cl (stereo unspecified),2.8%
C=CCSc1nnc2n(Cc3ccccc3)c(=O)c3c(n12)-c1ccccc1CC31CCCC1,6.5%
O=c1oc2ccccc2cc1-c1nnc(NC2CCCCC2)s1,i
NC(=O)CSc1nnc(-c2cccnc2)n1-c1ccccc1,i
COc1ccccc1N1CCN(C(=O)CN(c2cccc([N+](=O)[O-])c2)S(C)(=O)=O)CC1,i
Cc1ccc(C)c(OCC(=O)Nc2cccc(C(=O)O)c2)c1C,i
COc1ccc(NC(=O)CN(c2ccccc2F)S(C)(=O)=O)cc1,i
COC(=O)c1cc(NC(=O)C(C)Oc2ccc(Cl)cc2Cl)cc(C(=O)OC)c1 (stereo unspecified),i
CCOC(=O)C1CCN(C(=O)CN(c2ccccc2)S(=O)(=O)c2ccc(Cl)cc2)CC1,i
COCCCN1C(=O)c2oc3cc(C)c(C)cc3c(=O)c2C1c1ccc(C(=O)OC)cc1 (stereo unspecified),i
CCCCc1ccc2nc(NC(=O)c3ccc(C)cc3Cl)sc2c1,0.1%
C=CCOc1ccc(C2NC(=O)NC(C)=C2C(C)=O)cc1OCC (stereo unspecified),9.9%
CCCCC(=O)Nc1ccc(C(=O)Nc2cccc(C)c2)cc1,i
O=C(CCSc1nc(-c2ccco2)cc(C(F)(F)F)n1)N1CCN(c2ccccn2)CC1,0.5%
CC(=O)N(Cc1ccc(Br)cc1)c1sc2c(c1C#N)CC(C)(C)OC2,i
COc1ccc(C2CC(=O)C(C=Nc3ccc(Cl)cc3)=C(O)C2)cc1 (stereo unspecified),i
CCOc1ccc(NC(=O)CSc2nnc(CNC(=O)c3ccc(C)cc3)n2CC)cc1,i
COC(=O)Nc1ccc(-c2ccc(NC(=O)OC)c(C)c2)cc1C,i
CC(=O)c1ccc(N2CCN(C(=O)c3cccnc3)CC2)cc1,0.9%
CN(C)C(=O)CNC(=O)C1CCCCC1,i
CC(NC(=O)CSc1nnnn1-c1ccc(F)cc1)c1ccccc1 (stereo unspecified),1.1%
COc1cc(COc2ccc3c(c2)oc(=O)c2ccccc23)cc(OC)c1OC,i
CCc1ccc(NC(=O)CCCN2C(=O)c3ccccc3C2=O)cc1,i
CCOC(=O)c1ccc(NC(=O)C(=O)NCc2ccc(F)cc2)cc1,i
COc1ccc(C2CC(c3ccccc3)=NN2c2ccc(Cl)c(C(=O)O)c2)cc1 (stereo unspecified),i
Cc1c(C(=O)Nc2ccc3oc(=O)ccc3c2)cccc1[N+](=O)[O-],i
COc1ccc(Cl)cc1NC(=O)CSc1nnc(-c2ccc(C)cc2)o1,i
O=C(OCc1ccc(Cl)cc1)c1ccccc1I,4.4%
C=C(C)c1cccc(C(C)(C)NC(=O)N2CCCC(C(N)=O)C2)c1 (stereo unspecified),i
Cc1ccc(NC(=O)C2CC3CCC2C3)c(Br)c1 (stereo unspecified),?
Cc1ccccc1OC(=O)COc1ccccc1,i
O=C(NC(=S)Nc1ccc(Cc2ccncc2)cc1)c1cc(Br)ccc1Cl,i
O=c1cc(CSc2nnc(-c3ccccc3)o2)c2ccccc2[nH]1,i

A second format for part of the listing above.
CN(Cc1ccccc1)S(=O)(=O)c1ccc(NS(=O)(=O)Cc2ccccc2)cc1
  Mtb growth: i
Cn1c(CCCOc2ccc(Cl)cc2Cl)nnc1SCC(=O)Nc1ccc(F)c(Cl)c1
  Mtb growth: 2.8%

Other results follow:
Molecule,Mtb growth
COC(=O)C1=CN(c2ccc(OC)cc2)C=C(C(=O)OC)C1c1cccs1,1.2%
COc1cccc(OC)c1OCCOc1ccc(Br)cc1Cl,4.0%
COCC(=O)Oc1ccc(-c2ccc(C)cc2)cc1,i
COc1cc(S(=O)(=O)n2cnc3cc(C)c(C)cc32)c(OC)cc1Cl,1.7%
N#Cc1cccc(CSc2nnc(CCCO)n2-c2ccccc2)c1,i
COc1ccc(-n2c(C)cc(C)c(C(C)=O)c2=O)cc1,i
